# UBC13 polyUb = human UBC13 polyubiquitination inhibition. P61088. UBC13 polyubiquitin chain formation, TR-FRET. inhibition, % at 20 µM. hit rate 0.47% among 330,000. AID 485273; in the data active means inhibition above about 45%, passing the limit was not always enough
# Target sequence (P61088 whole entry, looked up): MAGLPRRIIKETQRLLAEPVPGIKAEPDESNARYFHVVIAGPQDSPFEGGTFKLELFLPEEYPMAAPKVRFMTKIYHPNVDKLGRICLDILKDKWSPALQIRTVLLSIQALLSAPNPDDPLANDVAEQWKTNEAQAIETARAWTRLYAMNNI
# SENP1 FRET inh = inhibitors of human SENP1 SUMO protease catalytic domain; Q9P0U3; recombinant SENP1 catalytic domain, CyPet-SUMO1-YPet FRET cleavage; inhibition, % at 10 µM; hit rate 0.21% among 360,000; AID 624204;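 active means inhibition at least 30% at 10 µM, raw YFP signal under a set limit, fluorescence ratio 0.5 to 1.5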;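 further: 0% = enzyme with DMSO and 100% = no enzyme wells; some results filed as inactive read as strong as hits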
# Target sequence (Q9P0U3 419-644 limits assumed): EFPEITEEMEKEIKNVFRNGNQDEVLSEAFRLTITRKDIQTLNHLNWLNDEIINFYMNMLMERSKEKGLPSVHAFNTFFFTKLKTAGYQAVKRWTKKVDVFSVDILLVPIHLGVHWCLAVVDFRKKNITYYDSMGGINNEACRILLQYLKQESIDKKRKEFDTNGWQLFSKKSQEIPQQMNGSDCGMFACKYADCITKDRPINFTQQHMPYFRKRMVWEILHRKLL
#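 Assay system: hSENP1 catalytic domain, recombinant. Amount: SENP1 enzyme, 20 pM final. Schedule: 50 min reaction, RT, dark. Technique: FRET, CFP and YFP emission. Control set: no-enzyme wells low, DMSO-plus-enzyme wells high control.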
# PfG6PD inh = PfG6PD (Plasmodium falciparum) enzyme inhibition | PfGluPho enzyme, NADPH resazurin-diaphorase fluorescence | inhibition, % at 20 µM | hit rate 0.78% among 350,000;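 active means inhibition reaching at least a set limit at 20 µM in the primary screen, cut at about 59% in these data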;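 further: 0% = DMSO wells with substrate and 100% = DMSO wells lacking glucose-6-phosphate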
# beta cell repl = MIN6 beta-cell proliferation induction; MIN6 cells proliferation, ATPlite luminescence, 48 h; cells starved in 0.2% serum; 100% = growth in 10% serum; hit rate 0.29% among 330,000; AID 2380; proliferation, % at 10 µM;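 active means compounds whose signal lies at least 3.5 SD above the mean of all wells on their plate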;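 further: 0% = DMSO-treated cells in low-serum medium and 100% = 10% serum control; some compounds called inactive have numbers as strong as hits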
# HKDC1 inhibitor = HKDC1 (human) hexokinase inhibition. recombinant HKDC1, G6PDH/diaphorase resazurin coupled fluorescence. hit rate 0.16% among 340,000. inhibition, % at 20 µM;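 active means inhibition above about 35% when tested at 20 µM, limit read from the data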;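 further: plate controls were DMSO wells with enzyme for no effect and DMSO wells lacking enzyme for full effect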
#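 Assay system: recombinant HKDC1 hexokinase; detection: coupled resazurin fluorescence, excitation 525 nm, emission 613 nm; benchmarks: DMSO-plus-enzyme-mix negative control, buffer-substituted positive control; compound dosing: single 20 µM dose; schedule: 90 min at room temperature in dark; also added: glucose plus 1 mM ATP as hexokinase substrates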
# The depositor's hits bear a star; & = joins results of further samples. A portion of the library; rates above refer to the full screens.
No.	Structure	UBC13 polyUb	SENP1 FRET inh	PfG6PD inh
1	Cn1cccc1C(=O)OCC(=O)Nc1sccc1C#N	1.2	-8.9	13.4
2	O=[N+]([O-])c1ccc(Cl)c(S(=O)(=O)Nc2cccc(-c3ccc(N4CCOCC4)nn3)c2)c1	-5.8	-1.2	-22.3
3	c1ccc2nc(-c3ccc4c(c3)OCO4)ccc2c1	5.5	1.4	18.3
4	O=C(Nc1ccc2c(c1)OCO2)c1ccc(Cl)s1	9.4	2.3	25.4
5	O=C(O)CCNC(=O)c1ccccc1	6.4	-0.5	2.3
6	O=C(Nc1nc(-c2cccs2)cs1)C1=COCCO1	3.1	0.2	15.4
7	Cc1ccc(-c2nnc(SCC(=O)NC(=O)Nc3ccc(C)cc3C)n2N)cc1	-1.0	2.1	-10.5
8	O=C(O)c1ccc(C(=O)Nc2ccc(F)cc2)cc1	-5.2	-1.2	-7.5
9	Cc1cccc(C(=O)OCC(=O)c2ccc3c(c2)NC(=O)CO3)c1	0.2	1.5	-2.2
10	Cc1ccnc(NC(=O)c2ccc3c(c2)C(=O)N(CC(C)C)C3=O)c1	13.0	0.8	-3.6
11	COc1ccc(C(=O)Nc2ccc3c(c2)C(=O)N(C)C3=O)cc1OC	11.9	-1.2	0.9
12	Cc1nc(-c2ccc(NC(=O)c3cccs3)cc2)cs1	-0.3	-0.8	15.1

No.	beta cell repl	HKDC1 inhibitor
1	3.3	-3.1
2	-6.2	2.3
3	-3.1	-3.8
4	-3.9	2.6
5	-0.9	-0.7
6	0.0	-12.9
7	0.0	-13.0
8	8.9	4.3
9	-2.8	-7.9
10	-2.2	1.9
11	-0.8	-3.8
12	-2.8	3.0

# In a second layout: entries from further up.
no.	Structure	UBC13 polyUb	SENP1 FRET inh	PfG6PD inh	beta cell repl	HKDC1 inhibitor
9	Cc1cccc(C(=O)OCC(=O)c2ccc3c(c2)NC(=O)CO3)c1	0.2	1.5	-2.2	-2.8	-7.9
10	Cc1ccnc(NC(=O)c2ccc3c(c2)C(=O)N(CC(C)C)C3=O)c1	13.0	0.8	-3.6	-2.2	1.9
11	COc1ccc(C(=O)Nc2ccc3c(c2)C(=O)N(C)C3=O)cc1OC	11.9	-1.2	0.9	-0.8	-3.8

# More compounds follow.
No.	Structure	UBC13 polyUb	SENP1 FRET inh	PfG6PD inh
13	COC(=O)c1sccc1NC(=O)Nc1cccc([N+](=O)[O-])c1	10.6	-1.3	19.1
14	O=C(O)c1cccc(NC(=O)c2ccc3c(c2)C(=O)N(c2ccccc2)C3=O)c1	-6.9	0.7	-3.2
15	CCOc1ccc(NC(=O)c2ccc(F)cc2F)cc1	10.1	2.7	-13.1
16	CCc1ccc(NC(=O)Nc2ccsc2C(=O)OC)cc1	-0.7	-1.4	57.3
17	Cc1nn(-c2nc3ccccc3[nH]2)c(N)c1-c1ccccc1	44.7	-1.3	19.3
18	COc1cccc(-c2noc(-c3ccc(Cl)nc3)n2)c1	0.4	0.4	-4.9
19	COc1cccc(-c2noc(-c3ccoc3C)n2)c1	7.1	-7.3	3.1
20	O=C(O)c1ccc2nc3c(nc2c1)-c1ccccc1C3=O	-59.5	11.6	-4.2
21	O=c1[nH]cnc2c1ncn2[C@H]1CC[C@@H](CO)O1	-8.0	2.1	-12.8
22	Cc1cccc(N/C=C/c2onc(C)c2[N+](=O)[O-])c1	-93.3	5.9	-12.9
23	O=C(Nc1ccc(C(=O)Oc2ccccc2)c(O)c1)c1ccccc1	12.0	1.9	18.8
24	Cc1nc2nc(-c3ccccc3)nn2c(C)c1Cl	-2.6	3.9	-0.2

No.	beta cell repl	HKDC1 inhibitor
13	1.6	-1.8
14	-5.2	-4.9
15	-5.0	-2.9
16	3.3	2.4
17	-3.5	-1.5
18	1.3	-1.7
19	-1.6	0.7
20	1.1	5.7
21	-1.2	-0.6
22	-4.7	-7.5
23	0.5	-2.3
24	-1.5	-2.0

# Carrying on.
No.	Structure	UBC13 polyUb	SENP1 FRET inh	PfG6PD inh
25	Cc1ccc(C(=O)OCC(=O)c2ccccc2)cc1	3.4	4.4	4.5
26	COC(=O)c1sccc1NC(=O)Nc1cccc(F)c1	-4.0	2.0	36.4
27	O=C(Oc1cccc(/C=N/NC(=O)c2ccccn2)c1)c1ccc([N+](=O)[O-])cc1	2.2	4.1	-10.1
28	COc1nccnc1NS(=O)(=O)c1ccc(NC(=S)NC(=O)c2cccc(F)c2)cc1	-8.2	1.6	-8.8
29	COC(=O)c1sccc1NC(=O)/C=C/c1ccc(Cl)cc1Cl	1.1	-0.8	-7.0
30	O=C(/C=C/c1cccs1)Nc1nccs1	-1.7	1.5	-3.4
31	COc1ccccc1-c1nc(-c2ccncc2)no1	3.6	-0.5	-3.8
32	COc1ccc(-c2coc3cc(OC(C)=O)c(OC)cc3c2=O)cc1	3.8	-1.4	-30.9
33	CCCCOc1ccc(C(=O)Nc2cccc(C)n2)cc1	3.6	4.5	9.5
34	COc1ccc(-c2noc(-c3cccs3)n2)cc1OC	-5.5	1.0	6.9
35	Cc1ccc(-c2cc(N)n(-c3ccccc3)n2)cc1	2.4	3.3	-2.0
36	CCCCCn1nc(C)c(/C=N/NC(=O)c2ccoc2C)c1C	10.1	0.6	-5.3

No.	beta cell repl	HKDC1 inhibitor
25	-1.1	0.0
26	-2.7	5.2
27	-1.6	-5.6
28	0.0	-7.1
29	-4.5	-5.6
30	-2.5	-5.7
31	-0.9	-2.2
32	-5.0	3.8
33	-3.0	1.1
34	2.4	-5.0
35	-2.9	0.0
36	0.8	6.0

# In the list so far, four have a COOH group:
No.	Structure	UBC13 polyUb	SENP1 FRET inh	PfG6PD inh
5	O=C(O)CCNC(=O)c1ccccc1	6.4	-0.5	2.3
8	O=C(O)c1ccc(C(=O)Nc2ccc(F)cc2)cc1	-5.2	-1.2	-7.5
14	O=C(O)c1cccc(NC(=O)c2ccc3c(c2)C(=O)N(c2ccccc2)C3=O)c1	-6.9	0.7	-3.2
20	O=C(O)c1ccc2nc3c(nc2c1)-c1ccccc1C3=O	-59.5	11.6	-4.2

No.	beta cell repl	HKDC1 inhibitor
5	-0.9	-0.7
8	8.9	4.3
14	-5.2	-4.9
20	1.1	5.7

# (cont.)
No.	Structure	UBC13 polyUb	SENP1 FRET inh	PfG6PD inh
37	COC(=O)c1ccc(C(=O)Nc2ccc(F)cc2)cc1	6.1	2.6	7.3
38	Cc1ccc(-c2cc3ncc(C#N)c(N)n3n2)cc1	27.2	-5.7	-1.9
39	Cc1cnc(C(=O)Nc2ccc(F)c(F)c2)cn1	-1.6	2.8	-5.3
40	Cn1c(CSc2nc3ccccc3s2)nc2ccccc21	11.3	0.7	7.1
41	O=C(COc1cccc2cccnc12)N1CCc2ccccc21	0.4	0.0	17.9
42	Fc1ccc2cnc(C3=CCCCC3)cc2c1	-6.5	-3.8	27.4
43	COC(=O)c1ccc(NC(=O)c2ccc3c(c2)OCO3)cc1	4.2	-1.2	4.0
44	Cc1ccc(C(=O)NN=CC(=O)c2ccccc2)c(C)c1	-4.5	1.1	-5.3
45	Brc1ccc(-c2cn3ccccc3n2)s1	-1.8	-0.1	30.3
46	COc1ccc(NC(=O)Nc2ccccc2F)cc1	-0.8	1.6	-0.3
47	COc1ccc2nc(-c3ccc(F)cc3)sc2c1	8.1	-1.9	31.3
48	COC(=O)c1sccc1NC(=O)Nc1cccc(OC)c1	-4.1	0.7	25.2

No.	beta cell repl	HKDC1 inhibitor
37	-4.0	-4.5
38	5.8	-11.1
39	-1.9	0.0
40	-0.3	1.9
41	-2.6	-13.5
42	0.4	10.9
43	-2.9	1.7
44	-4.3	-3.4
45	-3.9	-1.3
46	-3.2	7.8
47	-4.9	2.7
48	-0.8	7.2

# Further results follow.
No.	Structure	UBC13 polyUb	SENP1 FRET inh	PfG6PD inh
49	CC(C)NS(=O)(=O)c1ccc(OCC(=O)Nc2ccccc2F)cc1	1.8	1.8	2.0
50	CCc1nc2ccc(C(=O)Nc3ccc4c(c3)OCO4)cc2nc1CC	-0.5	-1.9	7.7
51	C=CCOC(=O)c1sc(NC(=O)c2ccco2)nc1C	-7.3	-0.5	-15.0
52	O=C(Nc1ccc2c(c1)OCCO2)c1cccc(Br)c1	6.8	4.6	37.1
53	CCc1c(O)nc(SCC(=O)Nc2ccccc2)n(-c2ccccc2)c1=O	2.9	2.6	-12.0
54	c1csc(CSc2nc3ccccc3s2)c1	-6.0	0.2	1.1
55	CCNC(=O)O/N=C(\C)c1sc(-c2ccc(Cl)cc2)nc1C	-6.2	0.8	8.6
56	Cn1c(SCC(=O)c2ccccc2)ncc(C(=O)Nc2ccc(F)cc2)c1=O	36.4	-4.3	-2.8
57	COc1ccc(-c2csc(Nc3ccccn3)n2)cc1	2.2	1.4	38.2
58	O=C(Nc1cccc(Br)c1)c1ccn[nH]1	-3.9	1.6	-8.4
59	COc1ccccc1NC(=O)Nc1ccc2c(c1)CCC2	-8.8	0.0	9.2
60	CCOC(=O)c1ccc(NC(=O)Nc2ccc(F)cc2)cc1	5.3	-1.1	14.2

No.	beta cell repl	HKDC1 inhibitor
49	-0.8	-6.0
50	1.5	5.3
51	-2.3	-8.2
52	-1.1	-1.0
53	0.3	-0.8
54	-1.3	-2.0
55	-0.1	0.5
56	1.0	-3.0
57	-4.8	-1.5
58	-0.1	-1.5
59	-5.5	1.8
60	-2.9	3.3

# Complete entries as entered above. Screens in order: UBC13 polyUb, SENP1 FRET inh, PfG6PD inh, beta cell repl, HKDC1 inhibitor
# Shown for `CCc1nc2ccc(C(=O)Nc3ccc4c(c3)OCO4)cc2nc1CC` → -0.5, -1.9, 7.7, 1.5, 5.3
# Shown for `COc1ccc(-c2csc(Nc3ccccn3)n2)cc1` → 2.2, 1.4, 38.2, -4.8, -1.5

# Continued.
No.	Structure	UBC13 polyUb	SENP1 FRET inh	PfG6PD inh
61	O=C(Nc1ncc([N+](=O)[O-])s1)c1cccs1	-21.8&-21.8	-53.5&-64.6	26.9&25.8
62	O=C(Nc1ccccc1C(=O)O)c1ccc(Br)o1	-7.0	2.8	20.0
63	COc1ccccc1-c1nc(-c2ccc(C(=O)O)cc2)no1	-2.4	2.7	-29.5
64	CSc1ncccc1C(=O)OCc1ccccc1Cl	10.8	3.0	-10.1
65	O=C(Nc1ccc(F)cc1)Nc1ccccc1F	-13.0	1.3	0.6
66	Cc1csc(NC(=O)c2ccccc2)n1	0.7	1.3	-0.7
67	CN(c1cccc(NC(=O)COc2ccccc2)c1)S(C)(=O)=O	-0.4	0.3	-4.5
68	CSc1nc(N)n2nc(-c3ccccc3)cc2n1	-4.1	-1.5	3.6
69	Cn1c(SCc2ccccc2Cl)nc2ccccc21	10.6	2.4	9.2
70	Fc1ccccc1-c1nc(-c2ccc(Cl)cc2)no1	7.2	0.2	3.7
71	COc1cccc(C(=O)Nc2ccc(NC(=O)c3ccco3)c(Cl)c2)c1	-3.4	0.8	69.7*
72	COc1ccc(Nc2ncnc3c2cnn3Cc2ccccc2)cc1OC	8.4	-0.9	-10.1

No.	beta cell repl	HKDC1 inhibitor
61	-2.9&1.4	-0.1&1.7
62	-1.3	-5.4
63	-2.7	1.9
64	-1.6	-4.8
65	-2.4	17.5
66	-0.1	-3.0
67	-1.2	-9.4
68	-2.0	-2.0
69	-4.5	-1.6
70	-0.6	-1.4
71	0.8	-5.1
72	1.1	-8.4

# (list continues)
No.	Structure	UBC13 polyUb	SENP1 FRET inh	PfG6PD inh
73	Cc1ccc(-c2cc3nc(-c4ccccc4)cc(N)n3n2)cc1	6.5	-2.4	-6.3
74	Cc1ccc([N+](=O)[O-])cc1S(=O)(=O)Nc1cccc(-c2ccc(N3CCOCC3)nn2)c1	4.9	1.0	-20.8
75	COC(=O)c1ccc(NC(=O)c2cccc(OC)c2)cc1	-1.7	2.2	3.8
76	Cc1ccc(-c2nnc(Nc3ccccc3)o2)cc1	4.9	2.3	11.5

No.	beta cell repl	HKDC1 inhibitor
73	-2.4	-7.4
74	-4.0	3.0
75	0.0	3.4
76	-4.6	-5.4
